ClpP mod: qHTS Assay for Activators of ClpP | actives 1.9% (n = 340,000) | ATP-dependent Clp protease proteolytic subunit (Bacillus subtilis (strain 168)), P80244 | AID 651965, 2013 | Potency, µM (highest dose often 57.5 µM), for inactives: top-dose activity change, negative = active | purified B. subtilis ClpP, FRET peptide cleavage, 20 min; active = well fitted falling curve with a large enough effect; inconclusive = small, poorly fitted or top-dose-only effect; inactive = no such curve, though single readings can be large or run the other way; also: potency is read from the fitted curve at half-maximal effect; the source files actives as falling curves though it sought activators and does not explain the sign; nearly all actives have a fitted effect of over 65% in size; many hits overshoot -100%
Target sequence (P80244 whole entry, looked up): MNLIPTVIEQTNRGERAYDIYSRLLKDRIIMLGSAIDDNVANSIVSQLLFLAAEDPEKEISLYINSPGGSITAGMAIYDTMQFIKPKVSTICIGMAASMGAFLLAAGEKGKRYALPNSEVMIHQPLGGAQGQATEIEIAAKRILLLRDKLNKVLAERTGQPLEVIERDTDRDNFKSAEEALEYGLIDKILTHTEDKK
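FRET quenching reversal measured ClpP activation: 10 microg/mL B. subtilis ClpP at pH 8 with the FRET-FV decapeptide, read at 430 nm after 320 nm excitation. The 20-min minus 0-min signal was scaled between DMSO/no-enzyme wells and ADEP (5.8 microM final).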
Menin-MLL FL inh: qHTS Assay for Inhibitors Targeting the Menin-MLL Interaction in MLL Related Leukemias: Competition With Fluorescein Labeled MLL-derived Peptide | FP activity change, % at 61.4 µM | AID 1766, 2009 | 290,000 tested, under 10 active | Fluorescence polarization, fluorescein-MLL peptide displacement from menin; inconclusive = falling polarisation curve, or a change in total fluorescence; inactive = total fluorescence flat and polarisation flat or rising; no compound was filed as active; the % refers to the polarisation; negative = inhibition;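 also: % of control where 0% means no effect; inhibitors lower the polarisation; unlabelled MLL peptide was the positive control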
TRPML1 ag: qHTS for Agonists of the Human Mucolipin Transient Receptor Potential 1 (TRPML1) | Mucolipin-1 (Homo sapiens), Q9GZU1 | TRPML1-expressing cells, Ca2+ dye fluorescence, FDSS; host cell line not named in the record; reference of the full effect not given here | activation, % (concentration not given with the values) | actives 0.12% (n = 410,000) | AID 624414, 2012; in the data active = activation above about 50%; inconclusive = about 30% to 50%; inactive = below about 30%; also: 0% is about no effect; the text of the record puts the active cut at 80%
Target sequence (Q9GZU1 whole entry, looked up): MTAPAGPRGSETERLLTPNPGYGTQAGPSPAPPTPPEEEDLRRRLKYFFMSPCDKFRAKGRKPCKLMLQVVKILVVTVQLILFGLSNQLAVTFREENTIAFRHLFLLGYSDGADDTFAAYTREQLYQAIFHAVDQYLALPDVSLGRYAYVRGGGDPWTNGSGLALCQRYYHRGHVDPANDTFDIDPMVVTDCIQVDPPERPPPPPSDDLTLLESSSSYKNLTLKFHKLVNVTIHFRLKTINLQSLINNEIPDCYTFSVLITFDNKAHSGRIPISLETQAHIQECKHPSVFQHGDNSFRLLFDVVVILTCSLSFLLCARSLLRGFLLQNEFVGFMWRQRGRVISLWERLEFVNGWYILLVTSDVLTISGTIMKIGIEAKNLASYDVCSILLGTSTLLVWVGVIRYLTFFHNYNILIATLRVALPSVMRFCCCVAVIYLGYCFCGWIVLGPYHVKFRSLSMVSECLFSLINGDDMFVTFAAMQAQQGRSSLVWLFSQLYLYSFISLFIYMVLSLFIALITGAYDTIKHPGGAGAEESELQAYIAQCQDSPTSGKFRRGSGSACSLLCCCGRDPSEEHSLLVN
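Agonist activity was taken from a 110 s kinetic Ca2+ dye read on the FDSS after pinning compounds onto TRPML1-DL cells. The cells were seeded at 1,500/well with Tet inducer, incubated about 16 h, then dye-loaded at room temperature.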
gsp agonist: qHTS for Agonist of gsp, the Etiologic Mutation Responsible for Fibrous Dysplasia/McCune-Albright Syndrome: qHTS; gsp mutant cells, cAMP HTRF, 30 min; control for the full effect not named in the record; Potency, µM (highest dose often 76.9 µM), without a hit: top-dose activation (cAMP increase), hits mostly activators; actives 0.13% (n = 340,000); AID 624287, 2012; active = well fitted activation curve with a large enough effect; inconclusive = small, poorly fitted or top-dose-only effect, or another doubt; inactive = no such curve, though single readings can be large or run the other way; cell line not stated here;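 also: phosphodiesterase inhibitor Ro 20-1724 added with compounds to block cAMP breakdown; potency is read from the fitted curve at half-maximal effect; nearly all actives have a fitted effect of over 60% in size; about a fifth of the inactives were tested at one dose only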
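Cells stably selected in G418 were plated at 2000/well, grown 16-24 hr, then given compounds in DMSO with the PDE inhibitor […] (300 uM solution added) for 30 min at 37C; cAMP was read by HTRF.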
TRPML1 inh: qHTS for Inhibitors of the Human Mucolipin Transient Receptor Potential 1 (TRPML1); Mucolipin-1 (Homo sapiens), Q9GZU1; TRPML1-inducible cells, Ca2+ dye fluorescence, FDSS; active compounds read low; inhibition of EC80 agonist-evoked calcium signal; activity change, negative = inhibition, % (test concentration not listed); actives 0.02% (n = 390,000); AID 624415, 2012; in the data active means activity change below about -50%; inconclusive means about -30% to -50%; inactive means above about -30%;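 also: stimulus is agonist 54-4 at its EC80 concentration; % is scaled to controls: 0 for no effect and ±100 for the full control effect; compound concentration not given in the record; the text of the record puts the active cut at -80%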
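Tet-induced TRPML1-DL cells loaded with Ca8 no-wash calcium dye were read kinetically on FDSS. Compound addition was followed by EC80 agonist 54-4 (4 uM final); inhibition was read over 110 s.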
gsp antagonist: qHTS for Antagonists of gsp, the Etiologic Mutation Responsible for Fibrous Dysplasia/McCune-Albright Syndrome: qHTS. gsp-mutant cells, cAMP HTRF, 30 min; control for the full effect not named in the record. Potency, µM (series often up to 76.9 µM), without a hit: at the highest dose activity change, negative = inhibition, usual class: inhibitors. actives 0.4% (n = 340,000). AID 624288, 2012; active = falling curve of any shape with a large fitted effect; inconclusive = falling curve, mostly with a smaller effect; inactive = flat or rising curve; cell line not stated here;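 also: intracellular cAMP measured with PDE inhibitor Ro 20-1724 present during compound exposure; potency is read from the fitted curve at half-maximal effect; % is scaled to controls: 0 for no effect and ±100 for the full control effect; nearly all actives have a fitted effect of over 65% in size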
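Cells, 2000/well, grown 16–24 h in DMEM 10% FBS with 0.5 mg/ml G418, then compounds plus […] (300 uM addition stock), 30 min at 37C. cAMP read by HTRF (cAMP-d2 and anti-cAMP antibody-K in lysis buffer) after 30 min RT.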
An asterisk follows results filed as active; ? = inconclusive; / = no result given; & = joins results of further samples; [ ] = dose if it differs, or a comment. Rows were taken by chance; 2.1% or so of the library scored in one or more.

smiles	ClpP mod	Menin-MLL FL inh	TRPML1 ag	gsp agonist	TRPML1 inh	gsp antagonist
OC(COc1ccccc1)CN1C2=NCCCN2c2ccccc21 (centres undefined)	?	1.6	-0.6	5%	-21	3%
CC(C)C[C@@H](CO)N1CCN(Cc2ccccc2)CCC1=O	-2.7%&0.6%&8.4%	-1.1	0.1&-0.7&-0.4	7%	17	6%
C[C@H](CO)N1C[C@H](C)[C@@H](CN(C)C(=O)Nc2ccc(C(F)(F)F)cc2)Oc2ccc(NS(=O)(=O)c3ccc(F)cc3)cc2C1=O	-0.3%	/	0.4	17%	-5	-16%
O=C(Nc1ccc2c(c1)[nH]c(=O)c1ccccc12)C(F)(F)F	20%	/	-0.6	-34%[inhibitor]	-18	-1%
COc1ccc2nc(NC(=O)c3ccccc3C(=O)O)sc2c1	0.7%	2.1	1.5	-4%	-15	-30%
CCn1cc(C(=O)NCC(OC)OC)c(=O)c2cc(S(=O)(=O)N3CCCC3)ccc21	-1.0%	2.0	-0.5	?	-11	-26%
N#CCCN(C(=O)COC(=O)c1nc(Cl)ccc1Cl)c1ccccc1	-0.3%	/	0.1	-3%[15.4 µM]	-6	2%
CCCNC(=O)c1c(C)cc(=O)oc1C	-1.5%	2.4	0.1	-29%	-9	-1%
Cc1ccc(NC(=O)C2CCCN(S(=O)(=O)c3c(C)n[nH]c3C)C2)c(C)c1 (centres undefined)	-1.5%	/	-0.6	/	31	/
Cc1ccc2[nH]c(=O)c(CN(CCCN3CCOCC3)C(=O)Nc3ccc(Cl)cc3)cc2c1	-8.3%	0.8	2.5	2%	29	-3%
COc1ccccc1N1CCN(C(=O)c2nn(-c3ccc(C)cc3)c(=O)n(C)c2=O)CC1	0.4%	/	-0.7	/	13	/
CCc1ccc(-n2c(SCc3ccccc3C)nc3[nH]ncc3c2=O)cc1	-7.3%	/	3.0	/	61	/
COc1ccc(C(=O)Nc2ccc3nc4c(c(Nc5ccccc5OC)c3c2)CCCC4)c(OC)c1	?	/	0.8	/	5	/
O=C(CN1CCCCC1)N1c2ccccc2Sc2ccc(C(F)(F)F)cc21	0.8%	0.2	-0.6	-22%	16	?
O=C(Nc1ccccc1C(F)(F)F)Nc1cccc2ccccc12	-21%	3.2	-0.1	1%	10	15%
CC(=O)C1=C(O)C(=O)N(c2ccc(C(=O)O)cc2)C1c1ccccc1 (centres undefined)	-21%	0.1	0.3	13%	-4	7%
COC(=O)C1=C[C@@H](C(=O)OC)C2C3=C(C(=O)[C@]2(C)NC(=O)c2ccccc2)[C@H](C)n2c(=O)n(-c4ccccc4)c(=O)n2[C@@H]3C1 (some centres undefined)	/	-16	1.9	/	2	/
Cc1cccc(-n2c(C)cc(C(=O)C(=O)Nc3nncs3)c2C)c1	0.7%	/	0.7	/	-18	/
O=C(C[n+]1ccccc1)N/N=C/c1ccccc1Cl	0.8%	/	0.7	-6%	-7	13%
CCCCNS(=O)(=O)c1ccc2nc(SCC(=O)Nc3ccccc3Cl)[nH]c2c1	2.4%	6.3	1.2	-20%	0	?

Of the compounds above, four contain a CF3 group:
smiles	ClpP mod	Menin-MLL FL inh	TRPML1 ag	gsp agonist	TRPML1 inh	gsp antagonist
C[C@H](CO)N1C[C@H](C)[C@@H](CN(C)C(=O)Nc2ccc(C(F)(F)F)cc2)Oc2ccc(NS(=O)(=O)c3ccc(F)cc3)cc2C1=O	-0.3%	/	0.4	17%	-5	-16%
O=C(Nc1ccc2c(c1)[nH]c(=O)c1ccccc12)C(F)(F)F	20%	/	-0.6	-34%[inhibitor]	-18	-1%
O=C(CN1CCCCC1)N1c2ccccc2Sc2ccc(C(F)(F)F)cc21	0.8%	0.2	-0.6	-22%	16	?
O=C(Nc1ccccc1C(F)(F)F)Nc1cccc2ccccc12	-21%	3.2	-0.1	1%	10	15%

Additional compounds.
smiles	ClpP mod	Menin-MLL FL inh	TRPML1 ag	gsp agonist	TRPML1 inh	gsp antagonist
O=C1[C@H](Cc2ccccc2)NCCCC[C@H](c2ccc(Cl)cc2)N1Cc1ccccc1	-0.9%&-1.6%	/	2.2&0.1	/	82	-4%
NC(=O)c1sc2nc(N3CCOCC3)c3c(c2c1N)CCCC3	16µM*	-1.2	-1.6	?	12	8%
C(=C\c1nccc2c1[nH]c1ccccc12)/c1ccccc1	4.2%	3.5	-0.7	?	-5	-17%
CCOC(=O)C(CC)n1nc(C)n2c(cc3sccc32)c1=O (centres undefined)	-20%	5.8	-0.1	-21%	12	4%
CCn1c(SCC(=O)Nc2ccc(C)cc2)nc(O)cc1=O	/	2.8	1.0	-3%[15.4 µM]	-1	-30%
COc1ccc(CN2CC(C(=O)NCCC3=CCCCC3)CC2=O)cc1 (centres undefined)	0.3%	-0.5	-0.1	7%	12	6%
OC(Cn1cncn1)(c1ccc(F)cc1)c1ccc(Cl)cc1 (centres undefined)	2.4%	1.3	0.8	0%	-26	10%
CCCC(=O)NC(=S)Nc1ccc(S(=O)(=O)N2CCc3ccccc32)cc1	-1.4%	/	0.5	6%[15.4 µM]	-1	-9%
Cc1ccc(Sc2ncccc2C(=O)O)cc1	1.3%	0.1	0.3	29%	-3	-4%
COc1ccccc1C(=O)N/C(=C\c1ccc(Br)cc1)C(=O)NCC(=O)O	-9.7%	1.4	-0.8	-14%[15.4 µM]	-27	0%
Cc1cccc(C(=O)NNC(=O)c2ccc(NC(=O)C(C)(C)C)cc2)c1	-0.8%	-11	/	-23%	/	4%
CCN(CC)C(=O)[C@H]1CC(CC(=O)NCCCOC)C(=O)N2CCc3c([nH]c4ccccc34)[C@]12C (some centres undefined)	-5.7%	/	-0.3	/	-4	8%
C[C@H]1CN([C@@H](C)CO)C(=O)c2cc(Br)cnc2O[C@@H]1CN(C)C(=O)C1CCC1	-0.7%	/	2.7	0%	-7	/
Cc1ccc(C)c(NC(=O)CCNS(=O)(=O)c2ccc3[nH]c(=O)oc3c2)c1	0.2%	/	-1.2	16%	-5	8%
O=C(CSCc1ccccc1)N1CCN(C(=O)c2ccco2)CC1	0.3%	1.0	-0.4	19%	4	2%
O=C1c2cccc([N+](=O)[O-])c2C(=O)N1c1cccnc1	/	-4.2	1.5	11%[15.4 µM]	11	-29%
COc1ccccc1N1CCN(C2CCCC(C)C2)CC1 (centres undefined)	-0.2%	0.6	0.2	2%	-1	12%
COc1ccccc1C(=O)Nc1cccc(S(=O)(=O)N2CCCC2)c1	-2.7%	4.1	1.7	-4%	2	-8%
O=C(NC1CCCC1)C(c1ccccc1)N(C(=O)c1ccno1)c1cccnc1 (centres undefined)	1.6%	1.6	2.4	-10%	-6	4%
Cn1c(=O)c2[nH]c(CCCCCc3nc4ccccc4[nH]3)nc2n(C)c1=O	0.8%	/	-0.4	-31%[15.4 µM]	6	18%
CCOc1ccccc1N(CC(=O)NCCSc1ccccc1)S(=O)(=O)c1ccccc1	-9.5%	/	2.9	/	7	/
CCCCC(C(=O)NC1CCCC1)N(C(=O)c1snc(C(N)=O)c1N)c1ccc(OCC)cc1 (centres undefined)	/	-5.2	1.7	-5%[15.4 µM]	0	-6%
CCC(C)NS(=O)(=O)c1cc2c3c(c1)CCC(=O)N3CCC2 (centres undefined)	-1.3%	1.5	0.4	1%	-10	-7%
CCOc1ccc(Cn2c(CNS(=O)(=O)c3ccc(Cl)s3)nc3cccnc32)cc1	-2.9%	/	2.8	/	8	/
CCOC(=O)c1sc(NC(=O)c2ccccc2)cc1C	14%	-1.9	1.6	-57%[inhibitor]	1	-25%
Cc1ccc2ncnc(NCCC(=O)O)c2c1	-20%	-1.1	-0.1	4%	4	7%
CC1CN(S(=O)(=O)c2ccc(F)cc2)C(C)N1C(=O)N1CCOCC1 (centres undefined)	/	2.2	-0.5	1%[15.4 µM]	-5	7%
Cc1cc(C)cc(OCC(=O)OCc2cc([N+](=O)[O-])cc3c2OCOC3)c1	/	/	2.2	4%	17	3%
CCCCSC1(SCCCC)N=C(N)C2(C#N)C(c3ccccc3)NC(C)=CC12C#N (centres undefined)	20%	-1.5	0.0	?	-5	3%
O=C(O)COc1ccccc1/C=N/NC(=O)c1cc(-c2ccc(Cl)cc2)nc2ccccc12	/	-1.5	0.6	-20%[15.4 µM]	7	-10%
Cn1c(SCC(=O)NC(=O)Cc2ccccc2)nnc1-c1ccc(F)cc1	/	/	0.4	11%	4	-6%
COc1cc(NC2=CC(=O)CC(C)(C)C2)cc(OC)c1OC	-3.9%	4.9	-0.2	5%	-3	-3%
COc1cc(OC)cc(C(=O)N/N=C(\C)CC(=O)Nc2ccccn2)c1	30%	-5.7	0.6	41%	0	21%
Cn1cc(CN(Cc2ccccn2)C[C@@H]2CCC(=O)N2)c(-c2ccccc2F)n1	-3.9%	-1.9	-0.2	21%	23	-18%
Cc1ccc(NC(=O)CCS(=O)(=O)c2ccc3nc(C)sc3c2)cc1	-1.8%&0.3%	-2.9	1.1&0.7	?	30&-5	-8%
CCC(Sc1nccn1C)C(=O)Nc1ccc(Cl)cn1 (centres undefined)	/	-0.7	0.7	22%	36	10%
N#Cc1c2c(c(NCCOCCO)n3c1nc1ccccc13)CCCC2	/	?	0.1	2%[15.4 µM]	3	-13%
